Source: PubChem BioAssay
Bead autofluor – flagged as autofluorescent in microsphere protease counterscreen; compound autofluorescence counterscreen, microsphere flow cytometry; active compounds read high; fluorescence intensity (concentration not given with the values); 3.1% of 360,000 active; AID 624483;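 active = at least 3 SD above the mean of all compounds, about 16000 in these data; inconclusive = too few beads counted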;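 note: 100 nL of 1 mM stock went into each well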
Mtb hypoxia inh – inhibitors of hypoxia-regulated fluorescent reporter in Mycobacterium tuberculosis; M. tuberculosis hypoxia-regulated fluorescent reporter, fluorescence; fluorescence inhibition, % (test concentration not listed); 0.1% of 300,000 active; AID 1159583;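 active = 35 to 45% if threefold the growth effect, above 45% if 1.5-fold the growth effect; inactive = the rest, general growth blockers included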;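 note: wells of about 50 µL received 100 nL stock; 0% = vehicle wells and 100% = reference inhibitor wells; whole bacteria with a GFP reporter of the hypoxia response; strong numbers were not always called active; many hits fall short of the cut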
BJeLR lethal – kills HRASV12-expressing BJeLR cells; inhibition, % (concentration not given with the values); 0.17% of 300,000 active; BJeLR (HRASV12) viability, CellTiter-Glo ATP luminescence, 48 h; reference of the scale not given here;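 active = replicate mean above 50%; inconclusive = above 50% but judged a plate artefact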;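 note: 50 nL library stock added to about 25 µL; numbers are from one replicate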
RN4220 kill – S. aureus RN4220 growth inhibition | OD600, 16 h | inhibition, % (no concentration beside the values) | 0.33% of 330,000 active;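 active = z-score of -3 or lower and OD600 up to 0.18 on both plates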;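 note: plate controls were untreated cells for no effect and reference antibiotic for full effect; stock transfer was 100 nL into about 80 µL; one replicate is shown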
PrP 5UTR inh – suppresses PrP 5' UTR mRNA reporter expression | 0.35% of 340,000 active | cell-based PrP 5' UTR mRNA reporter, plate reader | inhibition, % (no concentration beside the values);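 active = every replicate at 50% or more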;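 note: 0 = median of the neutral control wells; tested in H4 reporter cells; numbers are from one replicate; inactives centre near -14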
ugtP null kill – growth inhibition of S. aureus ugtP deletion strain; 0.54% of 330,000 active; S. aureus RN4220 ugtP deletion, OD600 growth, 16 h; some inactives read as strong as hits; growth inhibition, % (concentration not given with the values);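 active = z-score under -3 and OD600 up to 0.15 on both plates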;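 note: plate controls were untreated wells for no effect and antibiotic for full effect; wells of about 80 µL received 100 nL stock; the first replicate is given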
Mtb hypoxia inh growth – also measured in Mtb hypoxia inh; calls as there; growth inhibition, %; measured here: M. tuberculosis growth (absorbance);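 0% = vehicle and 100% = reference antibiotic; read after six days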
The depositor's hits bear a star; ? = inconclusive; . = no result given. Random draw from the library; any-hit rate near 4%.

SMILES | Bead autofluor | Mtb hypoxia inh | Mtb hypoxia inh growth | BJeLR lethal | RN4220 kill | PrP 5UTR inh | ugtP null kill
COCCn1nnnc1CN1CCN2CCCC2C1 (configuration not stated) | 12659 | 7 | 21 | 2 | 1.9 | -6 | 0
O=c1c2ccccc2nc(/C=C/c2cc(Br)ccc2O)n1CCO | 6180 | 5 | -2 | -1 | 41 | 6 | -4
CCOc1ccccc1OCCN1CCCC1 | 3840 | -1 | 4 | -3 | 3.9 | -6 | 6
CC(=O)OC1(C(C)=O)CCC2C3CC(Cl)C4=CC(=O)CCC4(C)C3CCC21C (configuration not stated) | 2863 | -3 | -4 | . | -1.4 | -15 | -4
COc1cccc(NC(=O)/C=C/c2ccc(S(=O)(=O)N3CCOCC3)cc2)c1 | . | 9 | 0 | . | -0.1 | 7 | 4
O=C(COC(=O)Cc1ccc(Br)cc1)NC1CCCCC1 | 3361 | 1 | -4 | 2 | 11 | 4 | 7
CC(=O)NC(NC(C)=O)c1cccc(OCc2ccccc2)c1 | 2038 | 9 | 1 | -8 | 2.9 | -23 | 3
Cc1cccn2cc(-c3cccc(S(=O)(=O)N4CCOCC4)c3)nc12 | 5949 | 6 | 6 | 6 | 4.7 | -12 | 10
O=C(COc1ccccc1)N(Cc1cc2ccccc2[nH]c1=O)CC1CCCO1 (configuration not stated) | 3766 | 5 | 8 | 1 | 11 | -14 | 5
NC(=O)c1nc(C(=O)N2CCN(c3ccccc3)CC2)c2ccccc2n1 | 3007 | 15 | 15 | . | -1.6 | -6 | 15
CC(C)CNC(=O)C1Nc2ccccc2C2C=CCC12 (configuration not stated) | 2721 | 0 | 10 | 9 | 7.9 | -16 | -4
O=C(OCC#CCSc1nc2ccccc2o1)c1cc2ccccc2o1 | . | . | . | -5 | -3.9 | -36 | 16
CCN1CCCC1CNc1ncnc2c1[nH]c1ccc(Cl)cc12 (configuration not stated) | 7116 | 6 | 2 | -2 | 2.9 | -2 | 26
COc1cc(C(=O)N2CCN(C3CCC(C)CC3)CC2)cc(OC)c1OC (configuration not stated) | 3074 | 11 | 1 | -11 | 5.0 | -1 | 6
COc1ccc(CC(=O)NCC(=O)NC(Cc2ccccc2)C(=O)O)cc1 (configuration not stated) | 4129 | -3 | 2 | -5 | 4.5 | -15 | 8
O=C(OCCOc1ccccc1Cl)c1cc(S(=O)(=O)N2CCCCC2)ccc1N1CCOCC1 | 3360 | 21 | 37 | . | 3.6 | -4 | -3
CC1(C)OC(=O)N(Cc2ccco2)C1(C)O (configuration not stated) | 3178 | 7 | 9 | 6 | 5.5 | 8 | 0
COC(=O)c1ccc(NS(=O)(=O)c2ccc(Cl)cc2)o1 | 4152 | -7 | -12 | -1 | 7.8 | -5 | 10
COCCCNC(=O)c1ccc(Cn2c(=O)c3ccccc3n(CC(=O)NCc3ccco3)c2=O)cc1 | 4965 | 7 | 14 | 0 | 0.2 | -13 | 0
O=c1cc(SCc2ccc(Cl)cc2Cl)nc[nH]1 | 3172 | 6 | 7 | . | -0.9 | -21 | -5
Cc1ccc2ccc(C)[n+](CCCS(=O)(=O)[O-])c2c1 | 3438 | 9 | -3 | -8 | 2.2 | -12 | -1
Cc1cc(Cl)ccc1Oc1nc(-c2ccc(F)cc2)ccc1C#N | 22004* | 3 | -1 | 6 | -1.4 | -11 | -23
CCN1CCN(C(=S)NCC(C)C)CC1 | 1967 | 7 | 5 | -6 | 3.6 | -7 | 6
COc1ccccc1NNC(=O)c1cccnc1Oc1ccccc1 | 6281 | 9 | -1 | -15 | 3.0 | 5 | 0
CC(C)Cc1nc2ccccc2[nH]1 | 6081 | -10 | 0 | 8 | 4.7 | -14 | 3
Next structures.
SMILES | Bead autofluor | Mtb hypoxia inh | Mtb hypoxia inh growth | BJeLR lethal | RN4220 kill | PrP 5UTR inh | ugtP null kill
CC(=NNc1nc(-c2ccccc2F)nc2ccccc12)c1ccccc1O | . | 2 | -5 | . | 2.9 | . | 51
COc1ccc(Nc2cc(C(=O)NC3CCCC3)c3ccccc3n2)c(OC)c1 | 5286 | 4 | 6 | -1 | 0.7 | -3 | 3
COc1ccc(-n2c(COc3ccc(C)cc3)n[nH]c2=S)cc1 | 4085 | 12 | 4 | 6 | 4.1 | -4 | 3
CCC(C)[C@H](NC(=O)OC(C)(C)C)C(=O)N/N=C/c1ccc2nccnc2c1 (some centres not stated) | 7744 | . | . | -8 | . | -21 | .
O=C(CCNC(=O)Cn1cnc2ccccc2c1=O)NCCC1=CCCCC1 | 3955 | 14 | 4 | -3 | 4.8 | -6 | 9
O=C(O)c1ccc(COCC(F)(F)F)cc1 | 16345* | 3 | 2 | -1 | 0.4 | 0 | 2
Oc1ccc(Cl)cc1Nc1nc(NCC2CCCO2)c2ccccc2n1 (configuration not stated) | 4325 | . | . | 0 | . | -18 | .
COc1ccc(N2CCN(c3nc(C)c(C)c(=O)[nH]3)CC2)cc1 | 10052 | 3 | -3 | 0 | 0.6 | -6 | 8
CC(CCCCCCCCC(=O)O)N(CCO)C(=O)OC(C)(C)C (configuration not stated) | 3941 | 4 | 7 | . | -1.2 | -11 | -5
COc1ccccc1C(CNc1nc(C(F)(F)F)nc2ccccc12)N(C)C (configuration not stated) | 3704 | -4 | 6 | 2 | -1.2 | -22 | 2
CN(Cc1ccccc1NC(=O)c1ccc(S(=O)(=O)N(C)C)cc1)C1CCCCC1 | . | 16 | 0 | 5 | 2.0 | . | 7
Cc1cccc(NS(=O)(=O)c2ccc(C(C)(C)C)cc2)n1 | 3811 | 2 | -3 | -3 | 5.1 | -29 | 11
CN(C)S(=O)(=O)c1cccc(NC(=S)N2CCc3ccccc32)c1 | 3586 | 17 | 7 | 3 | 6.3 | -18 | 7
FC(F)(F)c1cccc(CN2CCCCCC2)c1 | 24319* | 11 | 7 | -5 | 6.9 | -24 | -6
O=C(CCC(=O)N1CCN(S(=O)(=O)c2cccc(F)c2)CC1)c1cccs1 | 4115 | 9 | -10 | -5 | 9.8 | -10 | -2
COc1ccc(C(=O)Nc2sc3c(c2C(=O)NCc2ccco2)CCCC3)cc1OC | 3185 | 5 | 13 | -7 | 7.7 | -50 | -7
Cc1cccc(NC(=O)CSc2nc3ccccc3c(=O)n2CC2CCCO2)c1 (configuration not stated) | 8144 | 9 | -1 | . | 6.1 | -30 | -1
Fc1ccccc1N1CCN(C(c2ccncc2)c2nnnn2C2CCCC2)CC1 (configuration not stated) | 8519 | 3 | 1 | 6 | 3.9 | -15 | 8
Cc1ccnc(SCC(=O)N2CCC(C(N)=O)CC2)n1 | 5525 | 0 | 12 | -10 | 6.4 | -28 | -6
COc1cc(NC(=O)CN(C)Cc2cccc(F)c2)c(C)cc1[N+](=O)[O-] | 3776 | 8 | 16 | -1 | 6.6 | -4 | 7
Cc1ccc(C(=O)NCC(=O)Nc2ccc(Cl)cc2)s1 | 4096 | 7 | 4 | . | 0.9 | -18 | 3
COc1ccc(NC(=S)N2CCN(S(=O)(=O)c3ccc(F)cc3)CC2)cc1OC | 4414 | 2 | -3 | -1 | 0.4 | -26 | 7
Cc1ccc(S(=O)(=O)N2CCN(Cc3cc(C(C)C)ccc3O)CC2)cc1 | 4816 | 3 | 5 | 1 | 1.1 | -14 | 12
CCc1ccc(CCC(=O)N2CCN(S(=O)(=O)c3sc(C(=O)O)c(C)c3C(=O)O)CC2)cc1 | 7354 | 7 | 4 | . | 4.6 | -3 | 4
CCOC(=O)c1sc(NC(=O)c2c(CC)noc2C)nc1C | 6816 | 1 | -1 | . | 8.3 | -8 | 3

Continued; it opens with the 3 that closed the last part.
SMILES | Bead autofluor | Mtb hypoxia inh | Mtb hypoxia inh growth | BJeLR lethal | RN4220 kill | PrP 5UTR inh | ugtP null kill
Cc1ccc(S(=O)(=O)N2CCN(Cc3cc(C(C)C)ccc3O)CC2)cc1 | 4816 | 3 | 5 | 1 | 1.1 | -14 | 12
CCc1ccc(CCC(=O)N2CCN(S(=O)(=O)c3sc(C(=O)O)c(C)c3C(=O)O)CC2)cc1 | 7354 | 7 | 4 | . | 4.6 | -3 | 4
CCOC(=O)c1sc(NC(=O)c2c(CC)noc2C)nc1C | 6816 | 1 | -1 | . | 8.3 | -8 | 3
COc1ccc(NS(=O)(=O)c2ccc(OCC(=O)N3CCOCC3)cc2)cc1Cl | 5756 | 12 | 12 | 12 | 1.1 | -7 | 5
COc1ccc(S(=O)(=O)Oc2ccc3cccc(N)c3c2)cc1 | . | 5 | 9 | 0 | 6.9 | . | -3
N#Cc1c(OCC(=O)c2ccccc2)nc2c(c1-c1ccco1)CCc1ccccc1-2 | 18221* | 1 | 7 | -7 | 5.6 | -24 | -13
Cc1ccccc1N1CCN(C2CCCN(C(=O)CCC(F)(F)F)C2)CC1 (configuration not stated) | 3834 | 0 | 10 | -4 | 0.5 | -18 | 7
C=C(C)CNC(=S)N/N=C(\C)c1ccc(OC)cc1 | 2326 | . | . | 0 | . | -14 | .
Oc1ccc2ccccc2c1C=NC1CCCCC1 | 4883 | 5 | 4 | -6 | 35 | -2 | 9
CCN(CC)Cc1c(O)ccc2occ(C(=O)c3ccccc3)c12 | 3587 | 12 | 4 | 0 | -1.0 | -15 | 0
CCCCn1c(SC(C)C(=O)c2ccc(OC)cc2)nc2cc(S(N)(=O)=O)ccc21 (configuration not stated) | 9990 | 9 | 0 | -6 | 0.0 | 1 | -2
O=C(CCc1ccccc1)NNc1ccc(F)cc1 | 4392 | 12 | 3 | -5 | 2.7 | -36 | 6
CC1CCN(C(=O)CSCC(=O)O)CC1 | 4217 | 7 | -8 | -26 | 1.4 | 4 | 1
CC(=O)Nc1ccc(NC(=O)C2CCCN2C(=O)NC2CCCCC2)cc1 (configuration not stated) | 3607 | 8 | 10 | -2 | 5.2 | -14 | 1
CC1CCN(S(=O)(=O)c2cc3c4c(c2)CCN4C(=O)CC3)CC1 | ? | -1 | 9 | 0 | 4.3 | -5 | -5
CC(NS(=O)(=O)c1cccc(C(=O)O)c1)C12CC3CC(CC(C3)C1)C2 (configuration not stated) | ? | 5 | 5 | . | 8.5 | -1 | -5
FC(F)(F)c1ccc(/C=N/N2CCN(Cc3cccc4ccccc34)CC2)cc1 | 17471* | . | . | 1 | . | -4 | .
Cc1ccc(C)c(-c2csc(NC(=O)C3=COCCO3)n2)c1 | 6153 | 0 | 11 | -4 | -1.4 | -20 | 0
O=C(COc1ccc(S(=O)(=O)NC2CCCCC2)cc1Cl)NCc1cccnc1 | 2446 | 8 | 10 | -3 | 17 | -18 | 16
CC(=O)c1c(C)cc(C)c(CSc2ccccn2)c1C | 3482 | 13 | 18 | -16 | 6.5 | -16 | 10
Cc1cc2oc(C(=O)N(Cc3ccccc3)C3CCS(=O)(=O)C3)cc(=O)c2cc1Cl (configuration not stated) | 19953* | 0 | 6 | -8 | -2.1 | 4 | -1
CC(C)Oc1cc(N)c(Cl)cc1Cl | 4621 | 5 | 3 | -3 | 5.8 | -21 | 2
O=C(NCc1nc(-c2ccc(C(F)(F)F)cc2)no1)Nc1ccc(OC(F)(F)F)cc1 | 4331 | 0 | 2 | 0 | -0.5 | -16 | 40
Cc1ccccc1-n1ncc2c(SCC(=O)NCc3cccs3)ncnc21 | 3475 | -4 | 6 | 10 | 0.4 | -33 | 8
CCc1ccc(C(=O)CSc2nnc(C)c(=O)[nH]2)cc1 | 9543 | 19 | 7 | -6 | 2.4 | -7 | 9
O=C(Cc1c(F)c(F)c(F)c(F)c1F)Nc1nc(-c2ccccc2)cs1 | 5818 | 12 | 27 | 0 | 42 | -1 | 47
CN(C1CCCCC1)S(=O)(=O)c1ccc(C(=O)N2CCN(c3nc4ccccc4s3)CC2)cc1 | 2309 | 4 | 13 | 5 | -0.9 | -1 | 0
Cc1cc(C)n2nc(C(=O)N3CCCC(Nc4ccc(C(C)C)cc4)C3)cc2n1 (configuration not stated) | 5644 | 6 | -1 | 1 | 2.0 | -12 | 3
C=CCSc1nc2sc3c(c2c(=O)n1CC=C)CCc1ccccc1-3 | 1991 | 1 | 3 | 7 | 0.2 | 5 | 28
NC(=O)c1cc([N+](=O)[O-])ccc1NCc1cccc(N)c1 | 2897 | 7 | 8 | . | 8.0 | 4 | 1
CC1CN(C(=O)c2ccc([N+](=O)[O-])s2)CC(C)O1 (configuration not stated) | 6539 | 1 | 0 | . | 8.7 | -14 | 4
O=C(NC1CC2CCCC(C1)N2S(=O)(=O)c1ccccc1)C1CCCCC1 (configuration not stated) | 5640 | 2 | 7 | 7 | 1.7 | -11 | 4
